Mtb betalactam – beta-lactam sensitization of Mtb H37Rv; inhibition, % at 25 µM; AID 434955; M. tuberculosis H37Rv growth with meropenem, percent inhibition; hits of this screen are not shown here; actives 0.27% (n = 330,000);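 active means about 74% or more and at least 40 points above the plate without the antibiotic, then above 30% in a dose series; inconclusive means first-round hits that could not be retested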;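 further: growth measured after seven days incubation then overnight dye step; 0% = bacteria only wells and 100% = bacteria with antibiotic; twin plates without the antibiotic show which effects depend on it; some results filed as inactive read as strong as hits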
Starred values were filed as active, the others as inactive; ? = inconclusive. Some of the compounds tested. The share of hits here may be higher or lower than overall.

SMILES | Mtb betalactam
CCOc1ccc(C(=O)C(C)OC(=O)Cn2[nH]c(=O)c3ccccc3c2=O)cc1 (stereo not drawn) | -6.8
C[C@@H](CN1CCC[C@H]1CN1C(N)=NC[C@@H]1Cc1ccccc1)N1C[C@@H](Cc2ccccc2)N(CCc2ccc(Cl)c(Cl)c2)C1=N | 100.0
C=CCNc1nc(C(=O)OCC(=O)NCc2cccc(Cl)c2)cs1 | 0.2
CCN(C[C@H]1N[C@@](CC)(C(=O)OC)[C@H]2C(=O)N(C)C(=O)[C@@H]12)S(=O)(=O)c1ccc(-c2ccccc2)cc1 | -8.4
Cc1ccc(C(C)C)c(OCC(=O)NN=C2CCCC(=O)C2)c1 | 1.4
CC(C)(C)OC(=O)N[C@@H](C(=O)OC(C)(C)C)c1ccc2c(c1)OCO2 | -6.1
COc1ccc(S(=O)(=O)NNC(=O)C2COc3ccccc3O2)cc1[N+](=O)[O-] (stereo not drawn) | 5.0
Cc1ccc(SCCC(=O)OCC(=O)Nc2ccc(C(N)=O)cc2)cc1 | -5.9
CCN(CC)C(=O)c1nc[nH]c1C(=O)N1CCc2ccccc2C1 | 1.0
COc1ccc([C@H]2CC(=O)C=C(c3ccccc3C(F)(F)F)C2)cc1 | 5.7
Cc1ccc(NC(=O)COC(=O)Cn2ccc(C(F)(F)F)n2)cc1Cl | 2.7
COc1cccc(CNC(=O)COC(=O)C2CCN(c3ccc(C(F)(F)F)cn3)CC2)c1 | 4.0
CC1CCCC(C)N1C(=O)COC(=O)/C=C/c1ccc(Br)o1 (stereo not drawn) | 18.4
CC1CC(C)CN(C(=O)COc2cccnc2[N+](=O)[O-])C1 (stereo not drawn) | 3.4
O=C(NCc1ccccc1F)c1cccc(S(=O)(=O)N2CCCCC2)c1 | -0.3
CC(C)(C)N(Cc1ccccc1)C(=O)c1ccncc1 | 5.0
CC1(C)Cc2cccc(OCC(=O)NCCc3ccc(S(N)(=O)=O)cc3)c2O1 | -1.6
CC(C)c1csc(CN2CCC(CCC(=O)NCC3CCCO3)CC2)n1 (stereo not drawn) | ?
Cc1csc(=O)n1CC(=O)Nc1ccc(S(C)(=O)=O)cc1 | -0.9
Cc1ccc(S(=O)(=O)CCC(=O)NC2CCCCC2)cc1 | -3.7
Cc1ccc(S(=O)(=O)N2CC(C(=O)O)=CC[C@H]2c2ccc3c(c2)OCO3)cc1 | 3.2
CCOC(=O)c1[nH]cnc1C(=O)N1CCC(C)CC1 | 5.7
O=C(NCCc1ccc(F)cc1)c1ccc(S(=O)(=O)N2CCCC2)cc1 | 0.6
Cc1sc2nc(CSC(C)C(=O)Nc3ccc(Cl)cn3)[nH]c(=O)c2c1C (stereo not drawn) | -4.2
Cc1cnc(NC(=O)c2ccc(-c3ccc([N+](=O)[O-])cc3)o2)s1 | -6.1

The final 2 entries of the section before are carried over, then new ones follow.
SMILES | Mtb betalactam
Cc1sc2nc(CSC(C)C(=O)Nc3ccc(Cl)cn3)[nH]c(=O)c2c1C (stereo not drawn) | -4.2
Cc1cnc(NC(=O)c2ccc(-c3ccc([N+](=O)[O-])cc3)o2)s1 | -6.1
CCCn1c(N)c(C(=O)CSc2ncn[nH]2)c(=O)n(C)c1=O | -1.4
CN1CCN(c2ccc(NC(=O)c3ccc(Cl)cc3Cl)cc2)CC1 | 1.9
Cc1sc2ncnc(SCC(=O)N3CCOCC3)c2c1C | -8.1
COc1ccc(NC(=O)Nc2cccc3c2O[C@H](CN(C)C(=O)Nc2ccc(C(F)(F)F)cc2)[C@@H](C)CN([C@H](C)CO)C3=O)cc1 | 3.5
COc1ccc(CNC(=O)c2cc(C3CC3)nc3c2cnn3C(C)C)cc1OC | -1.6
Cc1cc(NC(=O)C2CC(=O)N(c3ccccc3C)C2)no1 (stereo not drawn) | 0.2
COC(=O)c1ccc(NC(=O)COC(=O)COc2cccc3c2OC(C)(C)C3)cc1 | -3.7
CCCN(C(=O)c1ccc(N2CCCC2=O)cc1)C1CCS(=O)(=O)C1 (stereo not drawn) | -1.2
COc1ccc(Cl)cc1NC(=O)COC(=O)c1c(-c2ccccc2)noc1C | 3.4
O=C(Nc1ccc(S(=O)(=O)N2C[C@@H]3C[C@@H](C2)c2cccc(=O)n2C3)cc1)c1ccc(F)cc1 | -2.8
COC(=O)c1ccc(NS(=O)(=O)c2ccc(S(=O)(=O)N3CCOCC3)cc2)cc1 | -7.6
CCOc1ccc(C(=O)OCC(=O)Nc2ccc3c(c2)OCCO3)cc1OC | -1.9
Cc1ccc(OCCCC(=O)ON=C(N)c2ccccc2C)cc1 | -6.6
CCCCCCC[C@@H](C/C=C/CCC(=O)O)OC | 3.2
CCc1ccc(-c2csc(NC(=O)C3=COCCO3)n2)cc1 | 24.2
CS(=O)(=O)c1cccc(C(=O)OCCCC(=O)c2ccccc2)c1 | -4.9
Cc1nnc(SC(C)C(=O)NCC2CCCO2)s1 (stereo not drawn) | -10.2
CC(C)(C)OC(=O)C[C@H]1C/C=C\C[C@@H](CC(=O)N[C@@H](CO)Cc2ccccc2)C(=O)N2CCC[C@@H]2COC1=O | 2.9
O=C(Nc1cccc(S(=O)(=O)N2CCCC2)c1)c1cc(=O)[nH]c2ccccc12 | -2.1
CCN(CC)S(=O)(=O)c1ccc(N2CCOCC2)c(NC(=O)C(C)Oc2ccc(F)cc2)c1 (stereo not drawn) | -2.8
CCC1CCc2sc(C(=O)N(C)CC(=O)Nc3cccc(OC)c3)cc2C1 (stereo not drawn) | -9.0
COc1cccc(C2c3c(oc4ccccc4c3=O)C(=O)N2Cc2ccco2)c1 (stereo not drawn) | -7.1
C[C@H](O)Cc1cc2ccccc2c(=O)o1 | -4.2
CC(=O)c1cc2c(cc1NC(=O)CCc1c(C)nc3ncnn3c1C)OCO2 | -1.4
CC(=O)N1CCN(C(=O)c2cc(C)oc2C)CC1 | -5.5
SMILES | Mtb betalactam
COc1ccc(S(=O)(=O)N2CCN(C(=O)c3oc4ccccc4c3C)CC2)cc1 | 5.0
Cc1cc(=O)[nH]c(SCC(=O)NC2CCCCCC2)n1 | -5.3
COc1ccc(CCC(=O)Nc2cc(S(=O)(=O)N3CCCCC3)ccc2N(C)C)cc1 | -10.4
CN(c1ccccc1)S(=O)(=O)c1ccc(C(=O)NNC(=O)c2ccccc2)cc1 | -5.4
O=C(Oc1ccc(/C=N/NC(=O)c2ccco2)cc1)c1ccccc1 | -11.6
COc1ccc(C2=CC(=O)C[C@H](c3ccc(Cl)cc3)C2)cc1 | 77.8
CCCc1cc(=O)[nH]c(SCC(=O)Nc2ccc(Cl)c(S(=O)(=O)N3CCOCC3)c2)n1 | -1.5
CCCNC(=O)C(Cc1ccc(F)cc1)NC(=O)c1ccc(C#N)cc1 (stereo not drawn) | -5.6
CCN1CCN(CCC(=O)Nc2cc(OC)ccc2OC)CC1 | -6.3
CSCCC(NC(=O)c1cccc(C)c1)C(=O)NCc1cccs1 (stereo not drawn) | 0.7
OCC[C@H]1C[C@@H](O)[C@H](O)[C@@]2(OCCc3ccccc32)O1 | -6.1
CCN(CC(=O)Nc1ccc(NC(C)=O)cc1)C(=O)c1cc2c(s1)CCCCC2 | -5.2
C=C1C[C@@]23CCC4[C@@](C)(CCC[C@@]4(C)C(=O)O)C2CC[C@]1(O)C3 (stereo partly drawn) | 0.5
O=C1CCCN1C(=O)CSc1nnnn1-c1ccccc1 | -15.7
CC(=O)c1c(C)[nH]c(C(=O)COC(=O)c2cccs2)c1C | 4.6
CCN(Cc1ccc(N(C)C)cc1)C(C)C(=O)Nc1ccc(S(=O)(=O)N2CCCC2)cc1 (stereo not drawn) | -7.2
CC(=O)Nc1cccc(NS(=O)(=O)c2c(C)noc2C)c1 | -2.8
COc1ccc(OCC(=O)NCCCNC(=O)COc2ccc(OC)cc2)cc1 | -1.2
O=C(CSc1ncccn1)NC(=O)Cc1ccccc1 | -2.4
O=C(NC(Cc1ccccc1)C(=O)O)/C(=C/c1ccc([N+](=O)[O-])cc1)NC(=O)c1ccccc1 (stereo not drawn) | -6.7
COc1cc([N+](=O)[O-])ccc1NC(=O)C1CCCN(S(C)(=O)=O)C1 (stereo not drawn) | -1.0
O=C(COc1ccccc1F)Nc1ccccc1C(=O)NC1CC1 | 4.3
COc1ccc([C@@H]2CC=C(C(=O)O)[C@H](c3cccc(Cl)c3)N2S(=O)(=O)c2ccc(C)cc2)cc1OC | -6.4
CCOc1cc(C(=O)Nc2cc(F)ccc2C)ccc1OCC(=O)N1CCOCC1 | -3.1
CCOc1ccc(CN(C)C(=O)CCNC(=O)c2ccco2)cc1 | -0.1
SMILES | Mtb betalactam
O=C1N[C@@H](c2ccccc2)COC(=O)[C@H](Cc2ccc(F)cc2)CC/C=C/C[C@H]1CC(=O)N(CCO)Cc1ccccc1 | 3.2
O=C(COC(=O)c1ccc(S(=O)(=O)N2CCCC2)cc1)Nc1cccc(Cl)c1 | -9.1
O=C(COC(=O)c1ccc2c(c1)OCO2)Nc1ccccc1OC(F)F | 3.8
CC(C)=CCC[C@](C)(O)C1CC[C@]2(C)C1[C@H](O)CC1[C@@]3(C)CC[C@H](O[C@@H]4O[C@H](CO)[C@@H](O)[C@H](O)[C@H]4O[C@@H]4O[C@H](CO)[C@@H](O)[C@H](O)[C@H]4O)C(C)(C)C3CC[C@]12C (stereo partly drawn) | -6.4
Cc1c(C(C)CCCO)oc(=O)c2c1Oc1c(C)c(C(C)C[C@H](C)O)oc(=O)c1C2 (stereo partly drawn) | -11.5
O=C(CNC(=O)C1CC1)Nc1ccc(F)c(F)c1F | -7.7
C[C@H](CO)N1C[C@H](C)[C@@H](CN(C)C(=O)NC2CCCCC2)Oc2ccc(NS(=O)(=O)c3ccc(F)cc3)cc2C1=O | -10.6
O=[N+]([O-])c1cccc(S(=O)(=O)Nc2ccc3cn[nH]c3c2)c1 | 1.6
O=C(Nc1ccccc1)c1ccccc1NC(=O)c1ccccc1[N+](=O)[O-] | -4.6
O=C(CN1C(=O)NC2(CCCCC2)C1=O)Nc1cccc(Cl)c1Cl | -5.3
COc1ccc(OCCCCN(C)Cc2ccccc2)cc1 | 7.7
COc1cc(NC(=O)COC(=O)CO/N=C(\C)c2ccc3c(c2)OCO3)cc(OC)c1 | -3.3
C=CCC[C@H](Cc1ccc(F)cc1)C(=O)OC[C@H]1CCCN1C(=O)[C@@H](CC=C)CC(=O)NCCO | 3.5
O=C(O)c1cc(-c2ccccc2)nc(-c2ccccc2)c1 | 9.9
Cc1nc(-c2cccc(NC(=O)c3ccc(-n4nccc4C)cc3)c2)cs1 | 0.3
c1ccc(CCC2Cc3ccccc3N2)cc1 (stereo not drawn) | 0.3
O=C(Nc1cccc(S(=O)(=O)Nc2ccc(Cl)cc2)c1)c1ccccn1 | -3.8
CN(Cc1c(F)cccc1Cl)C(=O)CNC(=O)c1cccs1 | -0.8
COc1cccc(-c2c(-c3cc(OC)cc(OC)c3)n(C)c3ccc(Br)cc23)c1 | 4.8
CCCC[C@@H]1C=C(C(=O)O)[C@H](c2ccc(Cl)c(Cl)c2)N1S(=O)(=O)c1ccc(C)cc1 | 2.0
Cc1cccc(OCCC(=O)OCc2csc(CC(=O)Nc3ccccc3C)n2)c1 | -6.3
Cc1ccsc1CN(C)C(=O)CN1C(=O)NC(c2ccccc2)(c2ccccc2)C1=O | -0.8
O=C(Cc1n[nH]c(=O)c2ccccc12)N1CCN(S(=O)(=O)c2ccc(F)c(Cl)c2)CC1 | -1.4
CN(C)S(=O)(=O)c1ccc(SCC(=O)N2CC(=O)Nc3ccccc32)nc1 | 1.9
CSc1ccc(NC(=O)CSc2nc3[nH]c(=O)cc(O)c3s2)cc1 | -13.9
SMILES | Mtb betalactam
CCN(Cc1ccccc1)C(=O)COC(=O)c1cc(S(=O)(=O)Nc2ccccc2OC)ccc1O | 4.3
O=C(COc1ccc2ccc(=O)oc2c1)Nc1cc([N+](=O)[O-])ccc1F | -8.4
CN(C)c1ccc(C(=O)OCC#CCSc2nnc(-c3cccc4ccccc34)o2)cc1 | 5.4
CCOC(=O)OC(C)OC(=O)[C@@H]1N2C(=O)[C@@H](NC(=O)[C@H](N)c3ccccc3)[C@H]2SC1(C)C (stereo partly drawn) | -1.7
CCN(c1ccc(C(=O)CSc2nnc(C3CC3)n2C2CC2)cc1)S(C)(=O)=O | -9.3
Cc1ccc(S(=O)(=O)N2CCN(C(=O)CNC(=O)c3ccc(Cl)cc3)CC2)cc1 | -1.0

Molecules shown so far containing an NH in an aromatic ring:
SMILES | Mtb betalactam
CCOc1ccc(C(=O)C(C)OC(=O)Cn2[nH]c(=O)c3ccccc3c2=O)cc1 (stereo not drawn) | -6.8
CCN(CC)C(=O)c1nc[nH]c1C(=O)N1CCc2ccccc2C1 | 1.0
CCOC(=O)c1[nH]cnc1C(=O)N1CCC(C)CC1 | 5.7
Cc1sc2nc(CSC(C)C(=O)Nc3ccc(Cl)cn3)[nH]c(=O)c2c1C (stereo not drawn) | -4.2
CCCn1c(N)c(C(=O)CSc2ncn[nH]2)c(=O)n(C)c1=O | -1.4
O=C(Nc1cccc(S(=O)(=O)N2CCCC2)c1)c1cc(=O)[nH]c2ccccc12 | -2.1
Cc1cc(=O)[nH]c(SCC(=O)NC2CCCCCC2)n1 | -5.3
CCCc1cc(=O)[nH]c(SCC(=O)Nc2ccc(Cl)c(S(=O)(=O)N3CCOCC3)c2)n1 | -1.5
CC(=O)c1c(C)[nH]c(C(=O)COC(=O)c2cccs2)c1C | 4.6
O=[N+]([O-])c1cccc(S(=O)(=O)Nc2ccc3cn[nH]c3c2)c1 | 1.6
O=C(Cc1n[nH]c(=O)c2ccccc12)N1CCN(S(=O)(=O)c2ccc(F)c(Cl)c2)CC1 | -1.4
CSc1ccc(NC(=O)CSc2nc3[nH]c(=O)cc(O)c3s2)cc1 | -13.9

Screens deposited in PubChem BioAssay by Southern Research Specialized Biocontainment Screening Center.
